Mtb hypoxia rep: reduces hypoxia-regulated biosensor signal in M. tuberculosis | M. tuberculosis hypoxia-regulated fluorescent reporter, fluorescence | fluorescence inhibition, % (concentration not given with the values) | actives 0.1% (n = 300,000);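 active = 35 to 45% if threefold the growth effect, above 45% if 1.5-fold the growth effect; inactive = the rest, general growth blockers included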;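 note: wells of about 50 µL received 100 nL stock; 0% = vehicle wells and 100% = reference inhibitor wells; whole bacteria with a GFP reporter of the hypoxia response; strong numbers were not always called active; many hits fall short of the cut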
Bead autofluor: counter-screen for toxin protease inhibitors: compound fluorescence. compound autofluorescence counterscreen, microsphere flow cytometry; hits give high values. actives 3.1% (n = 360,000). fluorescence intensity (no concentration beside the values);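 active = at least 3 SD above the mean of all compounds, about 16000 in these data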;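 note: 100 nL of 1 mM stock went into each well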
BJeLR lethal: BJeLR cell viability loss | BJeLR (HRASV12) viability, CellTiter-Glo ATP luminescence, 48 h; reference of the scale not given here | actives 0.17% (n = 300,000) | inhibition, % (no concentration beside the values);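 active = replicate mean above 50%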;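 note: 50 nL library stock added to about 25 µL; numbers are from one replicate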
PrP 5UTR inh: inhibition of PrP 5' UTR reporter expression | cell-based PrP 5' UTR mRNA reporter, plate reader | inhibition, % (no concentration beside the values) | actives 0.35% (n = 340,000);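 active = every replicate at 50% or more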;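 note: 0 = median of the neutral control wells; tested in H4 reporter cells; numbers are from one replicate; inactives centre near -14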
Sa RN4220 lethal: S. aureus RN4220 growth inhibition; OD600, 16 h; inhibition, % (concentration not given with the values); actives 0.33% (n = 330,000);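 active = z-score of -3 or lower and OD600 up to 0.18 on both plates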;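 note: plate controls were untreated cells for no effect and reference antibiotic for full effect; stock transfer was 100 nL into about 80 µL; one replicate is shown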
Sa ugtP lethal: growth inhibition of S. aureus ugtP deletion strain; S. aureus RN4220 ugtP deletion, OD600 growth, 16 h; some inactives read as strong as hits; growth inhibition, % (test concentration not listed); actives 0.54% (n = 330,000); AID 1259309;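 active = z-score under -3 and OD600 up to 0.15 on both plates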;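 note: plate controls were untreated wells for no effect and antibiotic for full effect; wells of about 80 µL received 100 nL stock; the first replicate is given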
Mtb hypoxia rep growth: further read-out of Mtb hypoxia rep, marked with its call; growth inhibition, %; measured here: M. tuberculosis growth (absorbance);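 0% = vehicle and 100% = reference antibiotic; read after six days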
Numbers without * were called inactive; . = no result given. An unsorted share of the library. Share with any hit: about 4%.

SMILES	Mtb hypoxia rep	Mtb hypoxia rep growth	Bead autofluor	BJeLR lethal	PrP 5UTR inh	Sa RN4220 lethal	Sa ugtP lethal
COc1cccc(NC(=O)c2nc(SC)ncc2Cl)c1	-5	8	4231	-11	-18	7.8	0
Cc1ccccc1-c1cc(C(=O)N2CCCC2)c2ccccc2n1	-1	-2	5721	-12	1	1.4	-4
CCOC(=O)c1sc2nc(SCC#N)n(CCCN3CCCC3=O)c(=O)c2c1C	12	10	9779	9	-14	0.6	0
CCSc1n[nH]c(=O)[nH]c1=O	-2	7	9505	-16	-7	2.5	2
Cc1ccc2nc(-c3ccc4c(c3)OCCO4)cc(C(=O)O)c2c1	6	12	3367	6	-10	4.8	-11
COc1ccc(Cl)cc1N(CC(=O)NC(C(C)C)C(C)C)S(C)(=O)=O	5	5	1886	-2	-16	8.9	-10
O=C(CSc1ccc([N+](=O)[O-])cn1)Nc1ccc(N2CCOCC2)c(Cl)c1	24	11	3266	2	-48	0.1	-9
CCN(Cc1ccccc1)c1ccc(C=NNC(=O)c2cccc(S(=O)(=O)N3CCOCC3)c2)cc1	4	13	.	.	.	-0.1	-3
O=C(Cc1ccccc1)Nc1nc(=O)c2ccccc2s1	.	.	2315	0	-18	-1.3	-3
CCCCn1c(=O)nc2n(-c3ccc(C)cc3)c3ccccc3cc-2c1=O	8	7	8892	2	-21	2.5	-2

Reprinted at random: 2 entries already listed, in no set order.
SMILES	Mtb hypoxia rep	Mtb hypoxia rep growth	Bead autofluor	BJeLR lethal	PrP 5UTR inh	Sa RN4220 lethal	Sa ugtP lethal
CCSc1n[nH]c(=O)[nH]c1=O	-2	7	9505	-16	-7	2.5	2
Cc1ccccc1-c1cc(C(=O)N2CCCC2)c2ccccc2n1	-1	-2	5721	-12	1	1.4	-4

Structural class, the compounds so far containing an aryl methoxy group (2)
SMILES	Mtb hypoxia rep	Mtb hypoxia rep growth	Bead autofluor	BJeLR lethal	PrP 5UTR inh	Sa RN4220 lethal	Sa ugtP lethal
COc1cccc(NC(=O)c2nc(SC)ncc2Cl)c1	-5	8	4231	-11	-18	7.8	0
COc1ccc(Cl)cc1N(CC(=O)NC(C(C)C)C(C)C)S(C)(=O)=O	5	5	1886	-2	-16	8.9	-10

Next section:
SMILES	Mtb hypoxia rep	Mtb hypoxia rep growth	Bead autofluor	BJeLR lethal	PrP 5UTR inh	Sa RN4220 lethal	Sa ugtP lethal
Cc1cccc(NC(=S)NC23CN4CN(CN(C4)C2)C3)c1	7	5	4667	3	-14	3.8	9
CCNC(=O)COC(=O)/C=C/c1cccc(F)c1	7	7	5375	2	-9	8.2	-3
C/C(=N/NC(=O)CNS(=O)(=O)c1ccc(C)cc1)c1cccc([N+](=O)[O-])c1	.	.	2594	-2	-22	.	.
CN(C)CCC(C(=O)c1ccccc1)c1ccccn1 (stereo not given)	9	4	3414	.	-20	2.0	-8
Cc1noc(C)c1COc1ccc(C(=O)Nc2ncccc2O)cc1	11	25	6074	-1	-17	2.8	3
O=c1nc(Nc2ccc(OCc3ccccc3)cc2)sc2ncccc12	-2	5	3495	14	27	-0.6	-8
CCOC(=O)C1(Cc2cccc(OC)c2)CCN(Cc2cccnc2)CC1	5	2	2738	-3	-5	2.9	5
CCOC(=O)C(CC)Sc1ccc2nnc(CCNS(=O)(=O)c3ccccc3)n2n1 (stereo not given)	6	7	3621	3	-6	4.2	-2
CCOC(=O)c1cc2ccc3ccccc3c2s1	10	-1	4818	-7	-47	12	88*
COc1cc(OC)cc(C(=O)NNC(=O)CCOc2ccccc2OC)c1	16	5	3911	.	-23	4.0	4
O=[N+]([O-])c1cc([N+](=O)[O-])c(Oc2cccnc2Br)cc1NN1CCCCC1	1	-6	4217	5	-17	9.8	10
COc1ccc(NC(=O)NNC(=O)COc2cc(C)c(Cl)c(C)c2)c(OC)c1	2	1	4710	2	1	4.3	2
COc1ccc(C=NNC(=O)c2ccccc2)cc1COc1ccccc1	2	-2	.	.	.	0.5	4
COc1ccc(C(O)=Cc2nc3ccccc3n(-c3ccccc3)c2=O)cc1	0	3	.	.	.	6.5	6
Cc1ccc(CN2CCC(n3nccc3NC(=O)C3CCOC3)CC2)cc1C (stereo not given)	-10	0	7221	3	4	-3.5	-5
COc1ccc(-c2cc(C(=O)N3CCN(c4ccccc4O)CC3)c3ccccc3n2)cc1OC	5	12	5817	2	-4	9.8	-10
COc1cc(C(=O)Oc2ccc3ccc(O)cc3c2)cc(OC)c1OC	13	0	3747	0	-28	7.6	2
CCN1CCc2c(OCc3ccc(C(=O)OC)o3)cccc2C1=O	-5	9	4072	8	-10	8.9	9
CC/C(=C/c1ccccc1)c1cccc2[nH]c3c(OC)cccc3c12	.	.	3594	3	3	.	.
COc1ccc(NS(=O)(=O)c2ccc(N3CCCC3)c(N)c2)cc1	-1	4	5786	7	-32	2.8	14
O=C1C(=O)N(Cc2ccccc2)C(c2cccc(O)c2)/C1=C(\O)c1ccc2c(c1)OCCO2 (stereo not given)	-7	-1	5433	1	0	2.2	4
COc1ccc(S(=O)(=O)Nc2ccc(N(C)C(C)=O)cc2)cc1	0	-6	.	4	-19	3.1	5
COc1ccc(Oc2ccc(N/C=C/C(=O)C(C)(C)C)cc2)cc1	-3	3	2178	0	-20	-2.4	-1
Cc1ccc(S(=O)(=O)N(C)C)cc1NC(=O)c1ccc2ccccc2n1	-7	-2	3920	9	-28	5.8	-10
Cc1ccc(C(=O)c2c[nH]c3c(F)cc(F)cc3c2=O)cc1	.	.	2617	13	-18	.	.
C#CCNC(=O)C1=C[C@H](c2ccc(C(F)(F)F)cc2)C[C@H](OCc2ccc(CO)cc2)O1	.	.	3012	-8	-19	.	.
Cc1ccsc1/C=C/c1ccc2cccc(O)c2n1	-1	5	9051	4	-55	4.7	-11
CN(C)c1ccc(/C=N/NC(=O)c2nnn(-c3nonc3N)c2CN(C)c2ccccc2)cc1	.	.	5210	5	-2	.	.
CCOc1ccc(NC(=O)C(C)SC(N)=O)cc1 (stereo not given)	6	15	10191	-11	-3	-2.6	7
O=C1/C(=C/c2ccc(C(=O)O)cc2)CCC/C1=C\c1ccc(C(=O)O)cc1	-2	2	2477	-14	-17	4.3	6
COc1cn(-c2ccccc2)nc1C(=O)OCC(=O)Nc1ccc(C)c(C)c1	3	4	8966	.	-10	5.3	1
COc1ccc(CN(C)C(=O)C2CCN(C(=O)Nc3ccccc3)CC2)cc1OC	-6	9	8759	.	-8	-1.3	-4
Cc1ccc(C(=O)N/C(=C/c2ccc(-c3ccc(Br)cc3)o2)C(=O)NC2CCS(=O)(=O)C2)cc1 (stereo not given)	5	-4	8935	-7	-18	2.4	6
CCOC(=O)C1=C(CNC(C)(C)CC(C)(C)C)NC(=O)NC1c1cccc([N+](=O)[O-])c1 (stereo not given)	7	14	4547	14	1	4.8	5
CC(=O)Nc1ccc(NC(=O)CSc2nc3ccccc3nc2N2CCC(C)CC2)cc1	-15	1	5246	3	-6	-0.7	-1
CCOC(=O)C1=C(C)NC(=O)C(C(N)=O)C12CCCCC2 (stereo not given)	.	.	4653	7	-14	3.3	-2
COCCn1c(C)cc(C2=NNC(=Nc3ccc(F)cc3)SC2)c1C	-7	0	20796*	-5	-67	5.2	-7
CCOC(=O)C1CCCN(c2cc(=O)n(-c3ccccc3Cl)c(=O)[nH]2)C1 (stereo not given)	-9	7	7157	9	-33	-5.5	-4
O=C(Nc1c(-c2ccccc2)nc2ccccn12)c1cccs1	17	8	9097	-7	-15	9.5	25
CCCC(=O)NC(C)c1nc2ccccc2n1C(C)C (stereo not given)	12	9	7474	-7	-30	-6.6	1
Cc1cc(SCC(=O)N/N=C/c2ccc(O)c(O)c2O)c(C)cc1Br	.	.	22001*	4	23	.	.
CCOc1ccc(C(=O)NN2CCOCC2)cc1	7	2	4245	-3	-10	1.8	-4
c1ccc(Nc2ccccn2)nc1	-4	-2	4646	-2	9	3.6	3
C#CCO[C@@H]1C[C@H](n2ccc(NC(=O)c3ccccc3)nc2=O)O[C@@H]1CO	.	.	4124	-2	-9	.	.
CC(NC=O)c1nc2ccccc2n1CCc1ccccc1 (stereo not given)	8	12	3789	-3	-11	7.5	6
CCCCc1ccc(-c2ccc(Br)cc2)nc1	2	7	11774	-4	-95	18	88*
CC1CC(C)CN(c2nc3c(c(=O)n(C)c(=O)n3C)n2CCSc2nc3ccccc3o2)C1 (stereo not given)	5	13	5987	.	-15	-15	-5
COC(=O)c1ccc(NC(=O)CSc2ccccc2)cc1	.	.	1963	8	-41	.	.
CCSCCOC(=O)C1=C(C)NC2=C(C(=O)CCC2)C1c1coc2ccccc2c1=O (stereo not given)	.	.	2396	3	-14	0.6	11
Cc1nc2nc(-c3cccnc3)[nH]n2c(=O)c1C	20	17	2489	9	-17	-4.3	-2
Going on with the list:
SMILES	Mtb hypoxia rep	Mtb hypoxia rep growth	Bead autofluor	BJeLR lethal	PrP 5UTR inh	Sa RN4220 lethal	Sa ugtP lethal
Cc1cc(OCC(F)(F)C(F)(F)C(F)(F)C(F)(F)C(F)(F)C(F)F)nc(N)n1	-7	8	4325	11	-6	11	48
Cc1cc(C)c(-c2noc(C(=O)OC(C)(C)C)c2C(=O)OC(C)(C)C)c(C)c1	.	.	3233	3	-8	.	.
C#CCCOC(=O)N1C2=NC(C(=O)OC)=C(C(=O)OC)[C@@H]3N(C)c4ccccc4[C@]23C[C@H]1C(=O)OC	.	.	3843	-12	-13	.	.
Cc1cccc(OCC(=O)OC2CCN(C)CC2)c1	.	.	2596	6	-6	-2.0	5
O=C(COC(=O)c1cccc(Br)c1)Nc1cccc2c1C(=O)c1ccccc1C2=O	4	9	2062	-1	-34	6.2	5
Cc1ccc(C(=O)CSc2nnc3c4ccccc4nc(Cc4ccccc4)n23)cc1	5	5	2455	-1	7	3.3	-4
O=C(Nc1nccs1)c1ccc(COc2ccccc2Br)o1	13	20	5831	-9	-20	23	8
COc1ccc(N2CCN(C(=O)CCNS(=O)(=O)c3ccccc3)CC2)cc1	6	7	4562	0	-25	-0.8	7
Cc1cc(CN(C)C(=O)c2ccc(OC3CCN(Cc4ccccn4)CC3)cc2)on1	0	9	6187	-3	-3	2.5	5
COc1cc(NC(=O)COC(=O)/C=C/c2ccc(O)c(OC)c2)cc(OC)c1	-7	-2	4259	4	-33	2.7	-1
Cc1cc(-n2ccnc2)n2c(nc3ccccc32)c1C#N	-1	-2	6539	18	-20	1.2	9
Cc1ccc(C(=O)NCC(=O)OCC(=O)NC(C)c2ccccc2)s1 (stereo not given)	8	7	3093	2	-19	-0.9	2
O=C(CSCCN1C(=O)c2ccccc2C1=O)Nc1ccc2ccccc2c1	13	-5	2197	-2	-3	-4.6	2
CCOc1ccc(OCC)c(-c2c(=O)n(OCc3ccccc3Br)c3ccccc3[n+]2[O-])c1	1	3	22784*	-3	-12	1.8	3
COc1cc(CC(=O)Nc2nc(C)cs2)cc(OC)c1OC	-7	-9	3931	-10	-36	-3.2	1
O=C(c1ccc(N2CCOCC2)c([N+](=O)[O-])c1)N1CCN(Cc2ccccc2)CC1	-6	14	5663	-3	-15	-1.1	-4
COc1ccc(/C=C/C(=O)NCCSCc2ccco2)cc1OC	2	-5	6110	-4	-25	1.2	8
CCn1nnnc1NCc1ccc(OCc2ccc(F)cc2Cl)c(OC)c1	2	20	3322	10	-2	-2.6	4
COc1cc(C2C(C#N)=C(N)N(Nc3ccccc3)C3=C2C(=O)CC(C)(C)C3)ccc1OCc1cccc(F)c1 (stereo not given)	2	10	3233	3	-21	-12	7
Cc1ccc(S(=O)(=O)C2(C(=O)Nc3cccc(F)c3)CC2)cc1	4	11	4451	1	-7	4.1	5
COc1ccc(N2CCN(C(=O)CSc3nnc4n3C(C)(C)Cc3ccccc3-4)CC2)cc1	5	5	22079*	10	-49	5.9	-4
CCOc1ccc(NC(=O)CNC(=O)c2cccs2)cc1	0	9	3565	7	-36	3.3	2
Cc1sc(NC(=O)C(C)C)c(C(=O)Nc2ccccc2)c1C	0	0	12594	9	-27	3.5	-5
CC(=O)c1cc2c(cc1NS(=O)(=O)c1ccccc1C)OCO2	0	-4	.	-1	.	7.6	10
Cc1ccc(NC(=O)c2ccc3snnc3c2)cc1	-4	5	3284	-5	-66	0.3	-13
Cc1ccc(-c2nn(CC(=O)N3CCOCC3)c(=O)c3ccccc23)cc1S(=O)(=O)N(C)C	3	-1	3275	5	-1	0.7	-1
COc1c(C)cc(NC(=O)c2ccc3c(c2)NC(=O)CO3)cc1C	6	-2	3327	-14	-8	0.8	13
